Screening data: PubChem BioAssay, several laboratories
GALR2 agonist – activates the human galanin receptor 2; 140,000 compounds, 0.48% hits; GALR2-expressing cells, agonist activation read-out; activation, %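 (tested at 5 µM)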;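 active = above mean plus 3 SD of all compounds, about 5% in these data, not always enough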;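 note: 0% = vehicle buffer wells and 100% = reference agonist at full effect; tested in CHO reporter cells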
Target sequence (O43603 whole entry, looked up): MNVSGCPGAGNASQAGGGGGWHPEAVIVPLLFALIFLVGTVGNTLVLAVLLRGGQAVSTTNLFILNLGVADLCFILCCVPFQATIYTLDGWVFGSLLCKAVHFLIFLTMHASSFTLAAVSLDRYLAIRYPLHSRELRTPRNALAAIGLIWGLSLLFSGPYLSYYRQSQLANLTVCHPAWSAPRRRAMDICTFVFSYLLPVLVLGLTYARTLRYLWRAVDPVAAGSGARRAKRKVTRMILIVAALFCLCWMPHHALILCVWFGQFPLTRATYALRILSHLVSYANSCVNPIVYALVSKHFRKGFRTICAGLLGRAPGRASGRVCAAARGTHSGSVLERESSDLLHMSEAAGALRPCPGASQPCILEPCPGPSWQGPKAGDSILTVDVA
RGS16-Gao HTS – modulates binding between human RGS16 and Galphao; 220,000 compounds, 0.38% hits; bead-based flow cytometry RGS16-Galphao binding, fluorescence; actives lie on both sides; O15492+P09471; binding response (% of control), % at 10 µM;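 active = below 25% or above 175%, edge rows of some plates excepted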;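 note: Galphao activated by GDP with aluminum fluoride before binding; 100% = wells without compound and 0% = beads without RGS; some results beyond the cut were filed as inactive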
Target sequence (O15492 whole entry, looked up): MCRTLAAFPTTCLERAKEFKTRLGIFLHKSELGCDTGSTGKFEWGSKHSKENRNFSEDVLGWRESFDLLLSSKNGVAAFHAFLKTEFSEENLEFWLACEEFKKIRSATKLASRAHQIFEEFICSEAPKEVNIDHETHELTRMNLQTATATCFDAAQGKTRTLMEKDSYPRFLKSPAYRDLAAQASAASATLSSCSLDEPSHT
Target sequence (P09471 whole entry, looked up): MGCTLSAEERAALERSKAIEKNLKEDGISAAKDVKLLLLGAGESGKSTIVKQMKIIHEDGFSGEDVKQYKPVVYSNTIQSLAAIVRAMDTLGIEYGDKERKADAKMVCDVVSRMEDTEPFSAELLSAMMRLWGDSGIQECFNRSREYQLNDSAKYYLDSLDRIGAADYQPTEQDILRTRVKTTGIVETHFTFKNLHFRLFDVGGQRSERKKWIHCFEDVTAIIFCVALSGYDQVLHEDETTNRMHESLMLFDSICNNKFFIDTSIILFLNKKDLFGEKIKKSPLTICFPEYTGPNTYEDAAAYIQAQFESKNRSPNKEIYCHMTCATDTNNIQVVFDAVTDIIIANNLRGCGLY
Insulin prom inh – TRM-6 insulin promoter activity inhibition | TRM-6 cells (human fetal islet line), insulin promoter-eGFP reporter, imaging; reporter expression induced with tamoxifen | inhibition, % at 2 µM | 130,000 compounds, 0.9% hits;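 active = inhibition above the mean plus 3 SD, with well images judged a real hit on visual review, cut at about 60% in these data, passing the limit was not always enough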
PKD1 kinase inh – inhibitors of human PKD1 kinase; Q15139; PKD1 kinase fluorescence polarization assay; inhibition, %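 (about 10 µM by stock and volumes)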; 200,000 compounds, 0.056% hits; AID 797;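 active = inhibition of 50% or more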;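 note: controls were vehicle for no effect and a reference inhibitor for full effect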
HSV augment – increases HSV replication in cells; 220,000 compounds, 0.005% hits; maximum fold increase; AID 1956; HSV replication augmentation in cells, fold increase;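 active = peak rise of 1.5-fold or more in the series; tested in PC3 cells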;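 note: first round at 10 µM; read as green reporter fluorescence; hits show the peak of a series up to 25 µM; 1 = signal of infected wells without compound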
Insulin prom inh cell count – recorded beside Insulin prom inh, whose call it bears; normalized cell count, %; measured here: cell count, toxicity; reference of the scale not given here;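 cells exposed to compound for 48 h; stained nuclei by imaging scaled within each plate; lower means fewer cells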
HSV augment primary fold – recorded beside HSV augment, whose call it bears; fold increase; compound at 10 µM; measured here: primary screen fold increase 10 uM; tested in PC3 cells;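 GFP signal in the first replicate; 1 = infected wells without compound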
* = called active by the depositor; i = inactive; . = not tested or not shown.

SMILES	GALR2 agonist	RGS16-Gao HTS	Insulin prom inh	Insulin prom inh cell count	PKD1 kinase inh	HSV augment	HSV augment primary fold
Cc1ccc(NC(=S)N/N=C/c2c(C)nn(-c3ccccc3)c2N2CCCC2)cc1	0.4	103	.	.	-1	i	0.91
Cc1ccc2nc(N3CCOCC3)c3nncn3c2c1	-0.8	100	-20	105	-4	.	.
CC(C)OCCCNC(=O)C1CCC(=O)N1C1CCCC1 (stereo not drawn)	-1.1	103	24	124	8	i	1.3
CCOC(=O)c1csc(NC(=O)Nc2cccc(OC)c2)n1	-1.2	101	.	.	-7	i	1
CCOC(=O)c1c(-c2cccs2)csc1NC(C)=O	-0.6	93	25	79	2	i	0.91
CCN1C(=S)SC(=O)C1=C1C=C(C)N(CCO)C(C)=C1	-1.0	107	-19	109	-5	i	0.99
CCC(=O)Nc1c2c(nn1-c1ccccc1C)CSC2	-0.7	106	-23	216	81*	i	1.1
CCn1nc(C)c(/C=N/NC(=O)CSc2ccccn2)c1C	.	94	.	.	.	i	1.1
O=C(O)CCN1C(=O)/C(=C/c2cn(-c3ccccc3)nc2-c2cccs2)SC1=S	.	109	13	147	-4	i	1
O=c1c(CN2CCN(c3ccccn3)CC2)coc2ccccc12	-0.4	117	39	38	-9	i	0.98
O=C(N1CCOCC1)N1CCC(n2nnc3ccccc32)CC1	-1.3	101	27	88	5	i	0.77
CCOC(=O)C1=C(C)NC(=S)NC1c1ccc(-c2cccc(Cl)c2C)o1 (stereo not drawn)	-1.6	97	-21	105	11	i	0.91
Cc1ccc(-c2nc3ccccc3s2)cc1NC(=S)NC(=O)/C=C/c1ccco1	-0.4	92	9	136	-5	i	0.98
Cc1nn(CC(=O)NC(C)c2ccccc2)c(=O)c2ccccc12 (stereo not drawn)	-2.6	100	-75	59	3	i	0.89
O=C(COc1cccc(OC(F)F)c1)Nc1ccc(SC(F)F)cc1	-1.4	95	7	98	22	i	0.92

Limited to GALR2 agonist, RGS16-Gao HTS and PKD1 kinase inh, for 2 of the compounds above:
| SMILES | GALR2 agonist | RGS16-Gao HTS | PKD1 kinase inh |
| --- | --- | --- | --- |
| CCOC(=O)c1csc(NC(=O)Nc2cccc(OC)c2)n1 | -1.2 | 101 | -7 |
| CCOC(=O)c1c(-c2cccs2)csc1NC(C)=O | -0.6 | 93 | 2 |

Continued:
SMILES	GALR2 agonist	RGS16-Gao HTS	Insulin prom inh	Insulin prom inh cell count	PKD1 kinase inh	HSV augment	HSV augment primary fold
Cc1ccc(NC(=O)c2ccc3c(c2)[nH]c(=O)n3C(C)C)cc1	.	100	.	.	4	i	0.94
CC(C)(C)n1nc2c(c1NC(=O)COc1ccc3ccccc3c1)CS(=O)(=O)C2	-3.8	92	-26	110	2	i	1.2
CCOC(=O)C1CCCN(c2c(NCC3CCCN3CC)c(=O)c2=O)C1 (stereo not drawn)	-1.6	102	.	.	-5	i	0.88
CCCn1nnc(NC(=O)/C=C/c2cc(Br)ccc2OC)n1	.	98	.	.	-4	i	1
CCN1CCN(S(=O)(=O)c2cccc([N+](=O)[O-])c2)CC1	0.5	108	18	101	-3	i	0.91
COc1ccc(CC(=O)Nc2nnc(C(C)(C)C)s2)cc1OC	.	98	21	107	6	i	0.9
CC(C)(C)c1cc(/C=N/NC(=O)Cc2nc3ccccc3[nH]2)cc(C(C)(C)C)c1O	0.2	105	45	73	1	i	0.98
Cc1cc(N2CCN(C)CC2)nc2ccc(NC(=S)NCc3cccs3)cc12	.	100	.	.	-4	i	0.8
CC(OC(=O)CC1CC2CCC1C2)C(=O)Nc1ccc(N2CCOCC2)cc1 (stereo not drawn)	.	98	.	.	-4	i	1
COC(=O)c1ccccc1C(=O)c1ccc2c(c1)NC(=O)CO2	.	99	.	.	-5	i	1
COc1ccccc1NC1=NC(c2ccc(Cl)cc2)N=C(N)N1 (stereo not drawn)	-0.7	105	-110	47	1	i	0.51
COC(=O)C(CC(C)C)Oc1ccc2c(C)cc(=O)oc2c1 (stereo not drawn)	-0.4	81	-18	114	0	i	0.92
CC(C)(C)C(=O)CSc1ncccn1	.	104	.	.	-1	i	0.93
Cc1cc(C)nc(/N=C(\N)Nc2ccc(SC(F)F)cc2)n1	.	104	.	.	.	i	0.93
CCOC(=O)N1CCC(NC(=O)c2ccc3c(=O)n4c(nc3c2)CCCC4)CC1	-1.1	102	.	.	-8	i	0.97
CS(=O)(=O)c1cnc2c(S(=O)(=O)c3ccccc3)cnn2c1N	.	97	.	.	-6	i	1.3
CCC1=NN(C(=O)C(=O)Nc2ccc(OC)cc2)C(O)(C(F)(F)F)C1 (stereo not drawn)	-0.9	102	.	.	-3	i	0.85
Cc1ccc(S(=O)(=O)N(Cc2cc3ccc(C)cc3[nH]c2=O)c2ccccc2)cc1	.	95	.	.	.	i	1.1
CCOC(=O)C1=C(CC)Nc2ccccc2N=C1NC(=O)c1ccc(S(=O)(=O)N2CCOCC2)cc1	.	99	-67	76	-11	i	0.94
COc1ccc(C2CC(=O)C=C(NC3CCCC3)C2)cc1 (stereo not drawn)	-1.2	95	.	.	-2	i	0.77
CC1CN(/C(=N\S(=O)(=O)c2ccccc2)c2ccccc2)CC(C)O1 (stereo not drawn)	.	107	.	.	.	i	1.2
O=C(CCC(=O)N1CCc2ccccc21)Nc1ccccc1	-2.1	98	3	152	-7	i	1.1
O=C(NC1CCCc2ccccc21)C1CCN(S(=O)(=O)c2cccc3nsnc23)CC1 (stereo not drawn)	-0.1	104	-58	147	-5	.	.
O=C(Oc1ccc([N+](=O)[O-])cc1)c1ccc2ccccc2n1	-3.7	101	.	.	-11	i	0.83
Cc1cc2ncn(S(=O)(=O)N3CCCCC3)c2cc1C	0.4	98	-4	151	-13	i	0.88
O=C1CCC(C(=O)N(Cc2ccco2)C2(C(=O)NC3CCCC3)CCCCC2)N1 (stereo not drawn)	0.1	104	31	173	-8	i	1
COCCNC(=O)c1ccc(C)c(S(=O)(=O)Nc2ccc(C)cc2)c1	-2.5	104	43	106	9	i	1.2
CC(C)C(=O)Nc1ccc(C(=O)N2CCN(C(=O)c3ccco3)CC2)cc1	-3.1	147	44	108	-6	i	0.92
Cc1ccc(C(C)C)c(OCC(=O)c2c(O)c3ccccc3oc2=O)c1	-0.7	.	.	.	-10	i	0.99
Cc1nc(SCC(=O)NCc2ccc(F)cc2)c2c(=O)n(C)c(=O)n(C)c2n1	-2.5	100	.	.	-2	i	0.96
COc1cc2c(C(=O)N3CCN(C)CC3)c(C)oc2cc1Br	-0.1	106	25	100	1	i	0.89
Cc1nn(-c2ccccc2)c2c1C(O)n1c(nc3ccccc31)S2 (stereo not drawn)	0.1	106	.	.	1	i	0.97
Oc1c(Cl)cc(Cl)cc1/C=N/c1nccs1	-3.7	104	12	211	-11	i	1.1
CC(=O)c1ccc(N2Cc3ccccc3C2=NC(=O)c2cccs2)cc1	-0.6	99	.	.	-8	i	1.1
CC(=O)N1N=C(c2cccc(Cl)c2)OC1c1ccc(C(C)C)cc1 (stereo not drawn)	-3.3	102	16	156	-4	i	0.77
COc1cccc(OCC(=O)O)c1	.	101	-27	93	-9	i	0.88
COc1ccc(-c2[nH]ncc2CN2CCN(c3ccc(F)cc3)CC2)cc1	.	99	.	.	.	i	0.98
C/C(CCc1ccc2c(c1)OCO2)=N\N=C1\NC(=O)CC(C(=O)Nc2ccccc2)S1 (stereo not drawn)	-1.7	113	6	138	-15	i	1.4
COc1ccc(CNCCc2ccc(Cl)cc2)cc1OCc1ccccc1	.	102	.	.	-2	i	0.89
CC(C)CNc1c(N)n(CC(C)C)c(=O)[nH]c1=O	.	102	.	.	-6	i	1.1
CC(C)(C)N(CC#CCC(O)(c1ccccc1)C1CCCC1)CCO (stereo not drawn)	.	102	.	.	-6	i	0.98
COc1ccc(C2/C=C\CN(C(=O)NC34CC5CC(CC(C5)C3)C4)CC(=O)N2Cc2ccc(F)cc2)cc1 (stereo not drawn)	.	109	.	.	.	i	0.78
Cc1ccc(C(=O)NC2(O)C(=O)c3ccccc3C2=O)cc1C	.	103	.	.	.	i	1.2
CCn1c(=N)n(CC(=O)c2ccco2)c2ccccc21	-1.8	90	25	148	5	i	0.81
CCn1c(COc2ccc(C)cc2)nnc1SCC(=O)NNC(=O)c1ccc(OC)cc1	-0.9	107	-3	66	-10	i	0.93
O/N=C/c1ccc(-c2ccccc2OC(F)(F)F)o1	.	87	.	.	.	i	0.94
NS(=O)(=O)c1ccc(CCNC(=O)CN2CCC(Cc3ccccc3)CC2)cc1	.	111	29	158	-3	i	0.86
CCCCC1=NN2C(=N)CC(=O)N=C2S1	-3.7	99	-22	106	-9	i	0.95
Cc1c(C#N)c2ccccc2n1CC(=O)NC(C)c1ccccc1 (stereo not drawn)	-1.1	100	-17	73	4	i	1.1
NNC(=O)c1ccc(CSc2nc3ccccc3s2)cc1	.	97	-12	64	-1	i	1.4
CCOC(=O)CSC1=C(C#N)C(=O)NC2(CCCCC2)S1	-3.3	104	23	96	1	i	1.1
COc1cccc(OC)c1C(=O)NC(=O)Nc1c(F)c(F)c(F)c(F)c1F	.	102	.	.	.	i	0.84
Oc1ccc(C(=S)N2CCN(c3cccc(Cl)c3)CC2)cc1	.	88	.	.	-3	i	0.8
O=C(NCc1cccc(Cl)c1)c1ccc2nc[nH]c2c1	-0.8	98	-12	97	-3	i	0.87
CC(C(=O)Nc1ccccc1Cl)N(c1ccccc1)S(C)(=O)=O (stereo not drawn)	.	105	.	.	-2	i	0.93
Cc1cc(C)n2nc(SCCOc3ccccc3F)nc2n1	.	108	.	.	0	i	0.97
Cc1occc1C(=O)OCC(=O)Nc1ccc(F)cc1	-0.8	98	-55	104	1	i	0.99
CCc1ccc2c(c1)C1(NN=C(c3ccccc3)S1)C(=O)N2 (stereo not drawn)	2.6	83	-262	88	4	i	0.7
COCCNC(=O)c1ccc(NS(=O)(=O)c2cc(C)ccc2C)cc1	-2.2	154	54	112	7	i	1
O=C(N/N=C/c1ccc(F)cc1)c1c(O)c2ccccc2[nH]c1=O	-0.5	108	.	.	-3	i	1.1

Profiles from above. Values in the order: GALR2 agonist	RGS16-Gao HTS	Insulin prom inh	Insulin prom inh cell count	PKD1 kinase inh	HSV augment	HSV augment primary fold
CCn1nc(C)c(/C=N/NC(=O)CSc2ccccn2)c1C in the list: .	94	.	.	.	i	1.1
O=C1CCC(C(=O)N(Cc2ccco2)C2(C(=O)NC3CCCC3)CCCCC2)N1 (stereo not drawn) in the list: 0.1	104	31	173	-8	i	1

(cont.)
SMILES	GALR2 agonist	RGS16-Gao HTS	Insulin prom inh	Insulin prom inh cell count	PKD1 kinase inh	HSV augment	HSV augment primary fold
COc1cc(NC(=O)c2ccc(Br)o2)ccc1NC(=O)c1ccccc1Cl	-1.2	98	37	126	-9	i	0.79
Cc1nnc(SCC(=O)NC23CC4CC(CC(C4)C2)C3)s1	.	105	.	.	-3	i	0.96
CC(=O)Nc1cc(C(=O)N(C)Cc2ccco2)ccc1Sc1ccc(Cl)cc1	0.0	77	-45	105	-7	i	0.95
Cc1cc(C)c(S(C)(=O)=O)c(=O)[nH]1	.	107	.	.	1	i	1.1
[O-]/[N+](=C\c1ccc(OC(F)F)cc1)c1ccccc1	-0.9	99	.	.	12	i	0.94
O=C(CCNc1ccc(Cl)cc1)c1cccs1	-0.2	103	.	.	7	i	0.91
Cn1c(CSCc2ccc(Cl)cc2)nnc1SCC(=O)Nc1nc2ccccc2s1	-0.5	.	19	165	5	i	0.91
CC1(C)CC(=O)C2=C(C1)NC(=O)CC2c1cc(F)ccc1F (stereo not drawn)	-1.5	97	-21	100	-21	i	0.96
CCOC(=O)CCN(Cc1cccs1)S(=O)(=O)c1ccc(F)cc1	0.9	102	.	.	9	i	0.59
CCOC(=O)c1cn(Cc2ccccc2)c2cc(C)nn2c1=O	.	105	.	.	.	i	1.2
Cc1cc(C)c(C)c(C(=O)CSc2nnc(-c3ccc4[nH]c(C)c(C)c4c3)o2)c1C	-2.9	110	-7	63	-2	i	0.84
O=C(C1CCCN1C(=O)c1cccs1)N1CCc2ccccc21 (stereo not drawn)	-1.0	104	.	.	0	i	1
CC1CCCCN1CC(=O)Nc1ccc2c(c1)OC(F)(F)O2 (stereo not drawn)	.	102	.	.	6	i	1
